# ClpP mod – qHTS Assay for Activators of ClpP; hit rate 1.9% among 340,000; purified B. subtilis ClpP, FRET peptide cleavage, 20 min; AID 651965, 2013; Potency, µM (titrated, usually from 57.5 µM), for inactives: at the highest dose activity change, negative = active; active = well fitted falling curve with a large enough effect; inconclusive = small, poorly fitted or top-dose-only effect; inactive = no such curve, though single readings can be large or run the other way; further: the source files actives as falling curves though it sought activators and does not explain the sign; nearly all actives have a fitted effect of over 65% in size; many hits overshoot -100%
# Target sequence (P80244 whole entry, looked up): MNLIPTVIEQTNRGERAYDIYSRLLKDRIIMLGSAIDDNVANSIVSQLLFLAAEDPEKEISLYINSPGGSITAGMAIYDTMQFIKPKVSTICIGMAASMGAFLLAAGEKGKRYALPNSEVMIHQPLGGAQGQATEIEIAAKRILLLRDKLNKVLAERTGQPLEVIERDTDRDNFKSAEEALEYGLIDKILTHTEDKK
#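 FRET quenching reversal measured ClpP activation: 10 microg/mL B. subtilis ClpP at pH 8 with the FRET-FV decapeptide, read at 430 nm after 320 nm excitation. The 20-min minus 0-min signal was scaled between DMSO/no-enzyme wells and ADEP (5.8 microM final).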
# An asterisk follows results filed as active; u = inconclusive. Potency means the concentration at half of the fitted maximal effect.
SMILES,ClpP mod
CC(=O)Nc1ccc(CN(C)c2c(C)nc3ccc(C(=O)NC4CCN(Cc5ccccc5)CC4)cn23)cc1,-1.8%
FC(F)C(F)(F)Oc1cccc(Nc2nccn3c(-c4cccc5cccnc45)cnc23)c1,-12.9%
CC(C)CN1C(=O)CSCC1(C)C(=O)NCc1ccccc1 (stereo not drawn),-0.3%
CC1(C(=O)NS(=O)(=O)c2ccc3c(c2)CCO3)CCN1C(=O)CCc1ccc(Cl)cc1Cl (stereo not drawn),-0.7%
C[n+]1ccnc2ccccc21,-2.0%
Cc1ccc(F)c(S(=O)(=O)NC(=O)C2(C)CCN2C(=O)CCc2cccs2)c1 (stereo not drawn),-0.4%
CC(=Cc1ccccc1)C=C1SC(=S)N(CCCC(=O)Nc2ccc(C(=O)O)cc2)C1=O,1.6%
COc1ccc(C2Nc3ccccc3C(=O)N2Cc2ccccc2)cc1COc1ccccc1F (stereo not drawn),4.5%
OC(c1ccc(F)cc1)c1ncc(-c2ccc3ccccc3c2)[nH]1 (stereo not drawn),4.1%
CNc1nc(NCc2ccc(C)cc2C)c2sccc2n1,-22.1%
COc1ccc(CN(Cc2ccccc2)C(=O)c2ccc(O)cc2)cc1COc1ccc(NC(C)=O)cc1,-5.2%
COC(=O)C1N2C(=O)N(C)[C@H](C(=O)OC)[C@H]2SC1(C)C (stereo partly drawn),1.8%
CCc1nc2c(OCc3cccc(Cl)c3)cccn2c1N(C)C(=O)CC(C)C,0.1%
O=C(Nc1ccc2c(c1)OCCO2)C(c1cc2ccccc2o1)N1CCN(C/C=C/c2ccccc2)CC1 (stereo not drawn),-2.4%
CC(C)C(=O)N1CCC1(C)C(=O)NCc1ccc(F)cc1Cl (stereo not drawn),-0.4%
COc1ccc(C(c2nnnn2C2CCCCC2)N2CCN(C/C=C/c3ccccc3)CC2)cc1 (stereo not drawn),-4.9%
COCCNC(=O)C1(C)CCN(C(=O)c2sccc2C)C1 (stereo not drawn),2.2%
CCCN1CNc2c(c(=O)[nH]c(=S)n2Cc2ccc(OC)c(OC)c2)C1,-1.8%
CC(C)C[C@H]1CNC(=O)C(=O)N1C[C@H](Cc1ccc(O)cc1)NC(=O)CC12CC3CC(CC(C3)C1)C2,-2.4%
Cc1ccc(-c2c(C(=O)c3ccc(Br)cc3)[nH]c(N)c2C(=O)NCc2ccc(Cl)cc2)cc1,0.0%
COC(=O)c1cnc(Nc2nc(C(N)c3ccccc3Cl)cs2)nc1C(F)(F)F (stereo not drawn),1.2%
COc1ccc([C@H]2CC(=O)C[C@@H](CCn3cc(CCc4ccccc4)nn3)O2)cc1,-1.1%
c1cc(-c2cnc3cccnn23)c2cccnc2c1,3.8%
CC1(C(=O)Nc2ccc3c(c2)OCO3)CCN1C(=O)c1ccccc1 (stereo not drawn),0.0%
C=C(C)Cn1c2ccc(NC(=O)NCc3ccccc3)cc2c(=O)n1C,4.7%
COC(=O)[C@]12CCCCC=C1N(Cc1ccco1)C(=O)[C@H](CC(=O)NCCc1ccccc1OC)C2,-3.6%
O=C(Nc1ccncc1)C1C(=O)c2ccccc2N(Cc2ccccc2)C1=O (stereo not drawn),-6.2%
CC(C)C[C@@H]1COc2cc(N3CCC[C@@H]3CO)ccc2S(=O)(=O)N1,1.2%
Cc1ccc([C@H]2C(C(=O)O)=CCN2S(=O)(=O)c2ccc(C)cc2)cc1,-6.1%
Cc1ccc(C(O)c2ncc(-c3cccc(C(F)(F)F)c3)[nH]2)cc1 (stereo not drawn),-2.2%

# Exported bar-delimited: part of the list above.
SMILES | ClpP mod
c1cc(-c2cnc3cccnn23)c2cccnc2c1 | 3.8%
CC1(C(=O)Nc2ccc3c(c2)OCO3)CCN1C(=O)c1ccccc1 (stereo not drawn) | 0.0%
C=C(C)Cn1c2ccc(NC(=O)NCc3ccccc3)cc2c(=O)n1C | 4.7%
COC(=O)[C@]12CCCCC=C1N(Cc1ccco1)C(=O)[C@H](CC(=O)NCCc1ccccc1OC)C2 | -3.6%
O=C(Nc1ccncc1)C1C(=O)c2ccccc2N(Cc2ccccc2)C1=O (stereo not drawn) | -6.2%
CC(C)C[C@@H]1COc2cc(N3CCC[C@@H]3CO)ccc2S(=O)(=O)N1 | 1.2%
Cc1ccc([C@H]2C(C(=O)O)=CCN2S(=O)(=O)c2ccc(C)cc2)cc1 | -6.1%

# (list continues)
SMILES,ClpP mod
CC1=C(C(=O)N2CCCCCC2)CC(CC(=O)NCCc2ccccn2)C(=O)N1CCCN1CCCC1=O (stereo not drawn),-1.4%
CCCC(=O)N1CCC1(C)C(=O)NCc1ccccc1SC (stereo not drawn),-1.9%
COc1ccc(C(O)c2ncc(-c3ccccc3)[nH]2)c(OC)c1 (stereo not drawn),-1.1%
CCc1nc2c(OCCOc3ccccc3)cccn2c1N(C)C(=O)C1CC1,-2.5%
COc1ccccc1-c1cc2c(c3c1ccn3C)C1CCC2O1 (stereo not drawn),5.2%
O=c1c(-c2ccccc2)nc2ccccc2n1C(CCc1ccccc1)c1nc2ccccc2[nH]1 (stereo not drawn),u
CCCNC(=O)C1(C)CCCN(Cc2ccccc2-c2ccccc2)C1 (stereo not drawn),0.8%
CC1(C(=O)NS(=O)(=O)c2cccc(C#N)c2)CCN1C(=O)Cc1ccc(Cl)cc1Cl (stereo not drawn),-0.5%
COc1ccc(-c2[nH][nH]c(=O)c2NC(=O)c2ccccc2Br)cc1,0.0%
COC(=O)[C@@]1(Sc2ccc(C)cc2)CC(=O)N(c2ccccc2)[C@@H]1c1ccccc1,0.0%
CCNC(=S)Nc1ccc2c(c1)c(=O)n(C)n2-c1cc(C)cc(C)c1,-2.2%
CNc1nc(Nc2ccc(C(=O)OC)cc2)c2sccc2n1,-19.8%
Cc1ccsc1C(=O)N1CCCC(C)(C(=O)O)C1 (stereo not drawn),0.9%
O=C(NCC(O)c1nc2ccccc2[nH]1)c1cc([N+](=O)[O-])ccc1F (stereo not drawn),-2.2%
S=C(NCCCCN(Cc1ccc(Cl)cc1)c1ccc(Br)cn1)NCCCc1cnc[nH]1,-3.8%
Cc1cccc(S(=O)(=O)NC(=O)C2(C)CCN2C(=O)C2(c3ccc(Cl)cc3)CC2)c1 (stereo not drawn),-0.5%
O=C(Nc1ccc(F)cc1)C(c1cc2ccccc2o1)N1CCN(c2ccncc2)CC1 (stereo not drawn),-0.9%
N#Cc1ccc(C(=O)N(Cc2ccco2)Cc2cccs2)cc1,2.9%
CN(C)c1ccc(/C=C2\C=Cc3ccccc32)cc1Br,-1.6%
COc1cc(OC)cc(C2=Cc3ccccc3C(CC(C)=O)N2c2ccc(C#CC3(N)CCCCC3)cc2)c1 (stereo not drawn),u

# Brought forward from above: 4 entries, then new ones.
SMILES,ClpP mod
O=C(Nc1ccc(F)cc1)C(c1cc2ccccc2o1)N1CCN(c2ccncc2)CC1 (stereo not drawn),-0.9%
N#Cc1ccc(C(=O)N(Cc2ccco2)Cc2cccs2)cc1,2.9%
CN(C)c1ccc(/C=C2\C=Cc3ccccc32)cc1Br,-1.6%
COc1cc(OC)cc(C2=Cc3ccccc3C(CC(C)=O)N2c2ccc(C#CC3(N)CCCCC3)cc2)c1 (stereo not drawn),u
O=C(CNC(=O)C(c1ccccc1)c1ccccc1)OCC(=O)c1cccc2ccccc12,-2.9%
CSc1ccc(/C=C2\C=C(C(O)c3ccc(SC)cc3)c3ccccc32)cc1 (stereo not drawn),-0.3%
CCOC(=O)c1ccccc1OCc1cc(C2Nc3ccccc3C(=O)N2c2cccc3ccccc23)ccc1OC (stereo not drawn),4.2%
COC(=O)[C@@]12C[C@@H](CC(=O)NCCCCc3ccccc3)C(=O)N(CCc3ccc(OC)c(OC)c3)C1=CCC(C)(C)C2,-3.7%
COc1ccc(C(O)c2ncc(-c3ccccc3OC)[nH]2)cc1 (stereo not drawn),-6.8%
CCCS(=O)(=O)c1ncc(Cl)c(C(=O)Nc2sc3c(c2C(=O)NCC)CCCC3)n1,-4.4%
COc1ccc(N=c2nc(-c3ccc(C)cc3)n(-c3ccccc3)s2)cc1,-0.6%
NC(c1csc(Nc2ccccn2)n1)c1ccccc1Cl (stereo not drawn),-3.7%
CCCC(C)(C)C(=O)N1CCC1(C)C(=O)Nc1cccc(OC)c1 (stereo not drawn),-2.8%
CCCCN(CCCC)c1ccc(/C=C2\C=Cc3ccccc32)cc1,-1.8%
COc1cc(F)ccc1-c1cc(C(=O)NCc2ccc(F)cc2)[nH]n1,-1.3%
Nc1ccn([C@@H]2O[C@H](C(=O)N[C@H]3c4ccccc4C[C@H]3O)[C@@H](O)[C@H]2O)c(=O)n1,1.1%
COc1cc2c(NC3CCN(C)CC3)nc(N3CCCCC3)nc2cc1OCCCN(C)C,4.4%
Cc1c([N+](=O)[O-])cnc2ccccc12,-14.6%
CCOC(=O)c1cc(OCc2csc(-c3ccccc3)n2)cc(C(=O)OCC)c1,43.5%
CCCCOCCCNC(=O)C[C@@H]1C[C@@]2(C(=O)OC)CC(C)(C)CC=C2N(Cc2cccc3ccccc23)C1=O,-0.3%
CC(C)CNC(=O)C1C(=O)Nc2ccccc2C(=O)N1C(C)(C)C (stereo not drawn),2.0%
CC(C)C[C@H]1CNC(=S)N1C[C@H]1CCCN1C[C@H](CC(C)C)N1C[C@H](Cc2ccc(O)cc2)N(CC2CCCCC2)C1=S,-2.5%
CCCCCCCCN1C(=O)[C@H](CC(=O)N2CCCCC2)C[C@@]2(C(=O)OC)CC(C)(C)CC=C12,-0.2%
CCCC[C@@H]1CNC(=O)C(=O)N1CC1CCCCC1,-2.3%
COCCCNc1ccn2nc(-c3ccc(CC(C)C)cc3)cc2n1,4.1%
CC1(c2nnnn2Cc2ccccc2)CCC(=O)N1C1CC1 (stereo not drawn),-1.7%
CSc1ccc(Cn2c(C)c(C(=O)NCc3cccs3)sc2=O)cc1,0.7%
O=C(NC1CCCC1)C1c2ccccc2OCC(=O)N1Cc1ccccc1 (stereo not drawn),-2.3%
Nc1[nH]c(C(=O)c2ccccc2)c(-c2ccccc2C(F)(F)F)c1C(=O)NCCc1cccs1,2.2%
Cc1cccc(C)c1NC(=O)C(C1CC1)n1c(-c2ccc(-c3ccccc3)cc2)nc2ccccc21 (stereo not drawn),4.3%
COc1cc(C(O)c2nc(-c3ccc(F)c(Cl)c3)cs2)ccc1F (stereo not drawn),0.9%
CN(C)CCNc1ncnc2c1ncn2[C@H]1CN(Cc2ccc(Cl)cc2)C[C@@H](CO)O1,-0.5%
COc1ccc(Cl)c(-c2cc(C(=O)Nc3ccc(F)cc3)[nH]n2)c1,4.7%
COc1ccc(O)cc1CN1CCN(c2ncc(Cc3ccccc3)cn2)CC1,-8.0%
O=C(Cc1ccc(OCc2ccccc2)cc1)NCc1ccc2c(c1)OCO2,0.4%
COc1ccc2c(c1)nc(-c1cccc(Br)c1)c(=O)n2C(c1ccccn1)c1nc2ccccc2[nH]1 (stereo not drawn),4.7%
NC(Cc1ccc(Cl)cc1)c1csc(Nc2ccc(C(=O)c3ccccc3)cc2)n1 (stereo not drawn),-7.8%
Cc1ccc(COC[C@H](CC(C)C)N2CCN(C(=O)c3cccc(C(F)(F)F)c3)CCC2=O)cc1,1.8%
CC1(C(=O)NS(=O)(=O)c2ccccc2C(F)(F)F)CCN1C(=O)CCc1cccs1 (stereo not drawn),2.6%
COCCCN1C(=O)C(CC(=O)NCC2CCCCC2)CC(C(=O)N(C(C)C)C(C)C)=C1C (stereo not drawn),-0.2%
COc1cc(F)ccc1-c1cc(C(=O)Nc2cc(OC)c(OC)c(OC)c2)[nH]n1,-0.9%
Cc1ccccc1NC(=O)Nc1nc(C2CCC(=O)N2)cs1 (stereo not drawn),1.7%
CCc1nc2ccc(C(=O)Nc3ccc(OC)c(OC)c3)cn2c1N(C)C(=O)Cc1ccccc1,-2.5%
Cc1ccccc1-c1cc2nc(NCCOc3ccccc3)n(C)c(=O)c2s1,-5.8%
CCCCCCCCC(c1nc2ccccc2[nH]1)N1CCN=C1c1cc2ccccc2[nH]1 (stereo not drawn),-7.8%
COC1=CC(=NCl)C=CC1=NCl,1.4%
CN1CCN(c2ccc(-c3cc(NC=O)c4ncc(-c5ccc(F)c(Cl)c5)n4c3)cc2)CC1,-26.4%
COC(=O)C[C@H]1C=C[C@@H](NS(=O)(=O)c2ccccc2)[C@@H](CO)O1,-0.5%
CN(Cc1ccccc1)c1ccc(/C=C/c2nc3ccccc3s2)cc1,-0.4%
CC(=O)Nc1cccc(-c2ccnc3c2CC(C(=O)NCc2cccnc2)O3)c1 (stereo not drawn),-24.7%
OC(c1ccc(F)cc1)c1ncc(-c2ccccc2F)[nH]1 (stereo not drawn),-0.2%
CC(C)(C)n1nnnc1C(c1ccccc1)N1CCN(c2ncccc2C(F)(F)F)CC1 (stereo not drawn),u
COc1cc(-c2cnc3c(NC(C)=O)cc(-c4cccc(C(=O)NCCO)c4)cn23)cc(OC)c1OC,2.2%
CCCCCCCCN1C(=O)[C@H](CC(=O)NCc2ccccc2)C[C@@]2(C(=O)OCC)CCC=C12,0.1%
# (more compounds)
SMILES,ClpP mod
Clc1nc(NCc2ccco2)c2ccccc2n1,4.0%
O=c1c2ccccc2nc2n1CCc1ccc(Br)cc1-2,97.7%
Cc1cc(C)c(C#N)c(OCC2CCCO2)n1 (stereo not drawn),1.4%
CC1(C(=O)NCc2cccc(C(F)(F)F)c2)CCN1CCc1ccccc1 (stereo not drawn),0.2%
CCNC(=O)C1(C)CCCN1Cc1cccc(C(F)(F)F)c1 (stereo not drawn),-0.8%
CSc1ccc(Cn2c(C)c(C(=O)NCc3ccc(Cl)c(Cl)c3)sc2=O)cc1,-1.6%

# From PubChem BioAssay

# These rows are one share of the data; rates above refer to the full screens.
